MT1-MMP act inh: blocks activation of human MT1-MMP; AID 651647; GFP/RFP ratio change, % at 20 µM; P50281; HT1080 RFP-PRO-GFP cells, GFP/RFP ratio fluorescence, overnight; percent of plate control window, DMSO zero; hit rate 0.061% among 360,000;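 active means GFP/RFP ratio change of at least 30% with cell ATP level not reduced by more than half and red fluorescence within 50% of control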; further: strong numbers were not always called active
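Read-out: GFP/RFP fluorescence ratio; Test system: RFP-PRO-GFP reporter HT1080 cells; Compound dosing: single-point 20 µM compound, 1% DMSO; Times: overnight compound exposure at 37 °C.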
HIV Env fusion: inhibitors of HIV Env-mediated cell fusion. hit rate 1.1% among 360,000. inhibition, % at 12.3 µM. HeLa-JRFL Env/CEM21 cell fusion, luciferase;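 active means mean replicate inhibition score of at least 50 and every replicate individually at or above 50; inconclusive means only one of the two criteria met; inactive means mean below 50 and not all replicates reaching 50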;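 further: 0% = plate neutral controls and 100% = maraviroc near 300 nM; one replicate is shown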
CSC inhib: blocks cancer stem cells; cancer stem cell-like cells viability, luminescence; inhibition, % at 7.5 µM; hit rate 1.1% among 300,000; AID 2717;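 active means mean at 75% or more and at least half the replicates too; inconclusive means mean and replicates disagree; tested in HMLE shEcad cells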;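 further: 0% = median of negative and 100% = median of positive control wells; the first replicate is given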
PABP polyA inh: PABP-poly(A) binding inhibition; inhibition, % at 35 µM; hit rate 1% among 290,000; PABP-poly(A) RNA binding, fluorescence polarization;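 active means 50% or more with normal probe brightness, or confirmed in later tests; inconclusive means above 50% with abnormal brightness, or retests that disagree; inactive means below 50% or failed in later tests; about a fifth of its hits are not listed in these tables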;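 further: calls also rest on retests at 20 µM and on dose response follow-up; controls were probe without protein and protein plus probe with vehicle; some compounds called inactive have numbers as strong as hits; many hits fall short of the cut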
Target sequence (P11940 whole entry, looked up): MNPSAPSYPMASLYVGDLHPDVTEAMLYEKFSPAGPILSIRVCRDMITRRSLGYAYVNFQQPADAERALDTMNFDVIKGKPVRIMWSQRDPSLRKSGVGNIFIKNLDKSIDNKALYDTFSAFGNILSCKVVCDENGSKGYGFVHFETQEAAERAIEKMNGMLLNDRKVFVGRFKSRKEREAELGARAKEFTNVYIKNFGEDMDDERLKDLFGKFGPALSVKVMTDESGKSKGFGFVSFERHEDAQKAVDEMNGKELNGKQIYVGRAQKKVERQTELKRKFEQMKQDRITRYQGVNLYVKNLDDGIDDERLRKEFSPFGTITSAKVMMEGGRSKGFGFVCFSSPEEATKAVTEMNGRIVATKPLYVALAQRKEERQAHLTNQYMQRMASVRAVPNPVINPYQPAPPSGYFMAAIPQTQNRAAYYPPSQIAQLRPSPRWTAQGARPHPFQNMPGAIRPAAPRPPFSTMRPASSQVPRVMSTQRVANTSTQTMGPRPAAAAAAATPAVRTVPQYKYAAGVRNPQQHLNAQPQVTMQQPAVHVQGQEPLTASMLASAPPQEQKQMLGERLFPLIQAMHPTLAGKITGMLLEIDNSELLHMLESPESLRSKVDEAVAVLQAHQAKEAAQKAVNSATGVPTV
UUG fidelity: alters start codon recognition fidelity in yeast; S. cerevisiae UUG-firefly luciferase reporter, luminescence/redox ratio; activity score, % at 18.7 µM; hit rate 0.13% among 350,000;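 active means replicate mean at a twofold rise or more, about +100% in these data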;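 further: firefly luciferase made from a UUG start codon reports start codon fidelity; reporter light over untreated wells divided by growth signal over untreated wells; some hits fall short of that in this replicate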
eIF4H FP inh: inhibitors of RNA binding by human eIF4H. inhibition, % at 35 µM. hit rate 0.94% among 290,000. eIF4H fluorescence polarization binding assay;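 active means 50% or more with normal probe brightness, or confirmed in later tests; inconclusive means above 50% with abnormal brightness, or retests that disagree; inactive means below 50% or failed in later tests; about a fifth of its hits are not listed in these tables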;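 further: calls also rest on retests at 20 µM and on dose response follow-up; 0% = protein and probe with vehicle and 100% = probe without protein; strong numbers were not always called active; many hits fall short of the cut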
Rce1 inh: inhibitors of yeast Ras-converting enzyme; Q03530; yeast membranes, quenched prenylated peptide cleavage fluorescence; calls only; hit rate 0.27% among 290,000; AID 2563;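 active means fall in fluorescence gain of 50% or more versus controls, with final raw signal at or below 3038400; inconclusive means same 50% fall but final raw signal above 3038400; inactive means fall in fluorescence gain under 50%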;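 further: plate controls were neutral control wells for no effect and wells lacking membranes for full effect; tested at 10 µM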
eIF4H FP inh retest: further read-out of eIF4H FP inh, marked with its call; inhibition, %; compound at 20 µM; confirmation average;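 mean of two retest wells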
PABP polyA inh retest: recorded beside PABP polyA inh, whose call it bears; inhibition, %; compound at 20 µM; confirmation repeats;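 mean of two retest wells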
MT1-MMP act inh RFP: second read-out of MT1-MMP act inh, no call of its own (marks repeat the call); RFP signal change, %; measured here: RFP expression control read;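 0 = vehicle wells; hits needed this value within 50% of zero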
Starred values were filed as active, the others as inactive; i = inactive; u = inconclusive; x = not tested or not shown.

A first look (2 entries):
SMILES | MT1-MMP act inh | MT1-MMP act inh RFP | HIV Env fusion | CSC inhib | PABP polyA inh | UUG fidelity | eIF4H FP inh | Rce1 inh | others
Cc1ccc(CSc2nc3ccccc3cc2C=O)cc1 | 2 | -5 | x | 70 | 0 | -17 | -3 | i
Cc1cc(NC(=O)/C=C/c2ccco2)ccc1NC(=O)c1ccccc1 | 1 | 6 | -9 | 13 | -6 | -7 | -8 | i

Main list, from the first entry:
SMILES | MT1-MMP act inh | MT1-MMP act inh RFP | HIV Env fusion | CSC inhib | PABP polyA inh | UUG fidelity | eIF4H FP inh | Rce1 inh | others
Cc1ccc(CSc2nc3ccccc3cc2C=O)cc1 | 2 | -5 | x | 70 | 0 | -17 | -3 | i
Cc1cc(NC(=O)/C=C/c2ccco2)ccc1NC(=O)c1ccccc1 | 1 | 6 | -9 | 13 | -6 | -7 | -8 | i
O=C(CCSCc1ccc(Cl)cc1)NCCC1=CCCCC1 | 1 | 5 | 7 | 6 | -1 | x | 0 | i
COc1ccc(/C=N/NC(=O)c2ccc3c(c2)OCO3)c(C(=O)O)c1OC | 4 | 1 | -8 | 8 | 23 | -5 | -10 | x
CC(=O)Nc1ccc(NC(=O)C/C(C)=N/NC(=O)C(=O)Nc2ccc(C)c(Cl)c2)cc1 | -1 | 3 | -4 | -6 | 5 | -6 | -10 | i
Cc1ccc(CNC(=O)C2C3C=CC4(CN(Cc5cccnc5)C(=O)C24)O3)cc1 (stereo unspecified) | 0 | 3 | 1 | -12 | -6 | -2 | -13 | i
CS(=O)(=O)c1ccccc1C(=O)NC1CCCc2ccccc21 (stereo unspecified) | -4 | 0 | 8 | -4 | -4 | x | 2 | i
O=[N+]([O-])c1cc(Cl)ccc1N1CCCC1 | -5 | 1 | -23 | 12 | 0 | -8 | -10 | i
CC(C)(C)C1CCc2c(C(=O)NNC(=O)CCC(=O)O)csc2C1 (stereo unspecified) | 5 | 5 | 4 | -6 | -1 | x | -1 | i
CNc1oc(-c2cccs2)nc1S(=O)(=O)c1ccccc1 | 1 | -1 | 5 | -5 | 4 | x | -10 | i
Cc1ccc(NC(=O)C2CC=CCC2C(=O)N2CCCCC2)cc1 (stereo unspecified) | 2 | 9 | 21 | -5 | 2 | -3 | 0 | i
CC(C)(C)NS(=O)(=O)c1ccc(NC(=O)NC2CCCCC2)cc1 | 1 | 3 | x | x | -7 | 44 | 0 | x

Some of these compounds in order of molecular weight, low to high:
SMILES | MT1-MMP act inh | MT1-MMP act inh RFP | HIV Env fusion | CSC inhib | PABP polyA inh | UUG fidelity | eIF4H FP inh | Rce1 inh | others
O=C(CCSCc1ccc(Cl)cc1)NCCC1=CCCCC1 | 1 | 5 | 7 | 6 | -1 | x | 0 | i
CC(C)(C)C1CCc2c(C(=O)NNC(=O)CCC(=O)O)csc2C1 (stereo unspecified) | 5 | 5 | 4 | -6 | -1 | x | -1 | i
CC(C)(C)NS(=O)(=O)c1ccc(NC(=O)NC2CCCCC2)cc1 | 1 | 3 | x | x | -7 | 44 | 0 | x
Cc1ccc(CNC(=O)C2C3C=CC4(CN(Cc5cccnc5)C(=O)C24)O3)cc1 (stereo unspecified) | 0 | 3 | 1 | -12 | -6 | -2 | -13 | i
CC(=O)Nc1ccc(NC(=O)C/C(C)=N/NC(=O)C(=O)Nc2ccc(C)c(Cl)c2)cc1 | -1 | 3 | -4 | -6 | 5 | -6 | -10 | i

Further entries follow:
SMILES | MT1-MMP act inh | MT1-MMP act inh RFP | HIV Env fusion | CSC inhib | PABP polyA inh | UUG fidelity | eIF4H FP inh | Rce1 inh | others
COc1ccc(N2C(=O)CC(N3CCN(C(=O)c4ccco4)CC3)C2=O)cc1 (stereo unspecified) | -2 | 1 | 6 | x | 0 | x | 2 | i
COc1ccc(C(=O)N2CCCC2(C)C(=O)NCC(C)C)cc1C(F)(F)F (stereo unspecified) | 3 | 5 | 12 | x | x | 3 | x | x
CCn1c(=O)c(C(=O)NNC(=O)c2ccccc2)c(O)c2ccccc21 | 5 | 12 | 6 | 0 | 6 | -12 | 6 | i
O=c1c2ccccc2[nH]c(=S)n1CCCN1CCC(Cc2ccccc2)CC1 | 0 | 0 | -13 | 28 | -3 | -8 | 0 | i
CCC(C(=O)O/N=C(\N)c1ccc(Cl)cc1)c1ccccc1 (stereo unspecified) | -2 | 2 | -25 | -12 | -1 | -16 | -9 | i
O=C1CN(C(=O)c2ccccc2F)C(c2ccccc2)c2cc(Cl)ccc2N1 (stereo unspecified) | -8 | -3 | 29 | -5 | 0 | 18 | -15 | i
C/C(=N\NC(=O)c1nnn(-c2nonc2N)c1C(C)C)c1ccncc1 | 2 | -3 | -99 | -3 | 4 | -15 | -8 | i
Cc1ccc2cc3c(NC(=O)CC(C)C)nn(C)c3nc2c1 | 1 | -4 | x | 3 | 5 | 0 | 1 | i
O=C(O)CN1CCN(Cc2cccc(Cl)c2)C1=O | -2 | 1 | -5 | -13 | 6 | -18 | -6 | i
CCc1nc(SCC(=O)Nc2c(C)nn(C)c2C)c2cnn(-c3ccccc3)c2n1 | x | x | x | x | 1 | x | -2 | i
CCOC(=O)c1[nH]c2ccc(F)cc2c1NC(=O)Nc1ccccc1OC | 1 | 2 | x | 0 | -4 | 3 | -6 | i
O=C(NCCCN1CCOCC1)c1cc(-c2ccc(Cl)c(Cl)c2)on1 | 4 | 0 | 7 | -3 | 4 | -23 | 12 | i

Continued, overlapping the part above by 2 compounds.
SMILES | MT1-MMP act inh | MT1-MMP act inh RFP | HIV Env fusion | CSC inhib | PABP polyA inh | UUG fidelity | eIF4H FP inh | Rce1 inh | others
CCOC(=O)c1[nH]c2ccc(F)cc2c1NC(=O)Nc1ccccc1OC | 1 | 2 | x | 0 | -4 | 3 | -6 | i
O=C(NCCCN1CCOCC1)c1cc(-c2ccc(Cl)c(Cl)c2)on1 | 4 | 0 | 7 | -3 | 4 | -23 | 12 | i
CC(C)Oc1ccc(C(=O)Nc2cc(=O)n(C)c(=O)n2C)cc1 | 3 | 6 | 4 | -13 | -1 | 12 | -5 | i
O=C(Nc1ccc2c(c1)OCO2)c1cc(C2CCCCN2S(=O)(=O)c2ccccc2)on1 (stereo unspecified) | 2 | -6 | 7 | x | x | -39 | x | x
Cc1cc(C)n(-c2nc3c(c(=O)[nH]c(=O)n3C)n2CC(O)COc2ccc(Cl)cc2Cl)n1 (stereo unspecified) | 7 | -9 | -78 | 46 | -15 | -15 | 8 | i
CC(C)c1ccc(C(=O)CN2C(=O)NC3(CCc4ccccc43)C2=O)cc1 (stereo unspecified) | 7 | -3 | -20 | x | x | 1 | x | x
O=C(COC(=O)C1=COCCO1)Nc1ccc(Oc2ccccc2)cc1 | 4 | 7 | 19 | 10 | -6 | 0 | 2 | i
COc1ccc2c(C)cc(SCn3nnc4ccccc4c3=O)nc2c1 | -1 | -3 | 1 | 11 | 15 | x | -15 | i
O=C(NCc1cccnc1)c1cnc2ccccc2n1 | 0 | 3 | 8 | -2 | -2 | x | 3 | i
O=C(Nc1ccccc1C(=O)NCCCN1CCOCC1)c1ccc(F)cc1 | -1 | 4 | 21 | -10 | 5 | -17 | 5 | i
CCC(=O)N=c1sc2c(C)cc(C)cc2n1CC(=O)OC | -4 | -4 | -4 | -10 | 2 | 0 | -8 | i
CCOC(=O)c1ccc(NC(=S)NN2CCN(C)CC2)cc1 | 1 | -2 | 12 | -8 | 0 | x | -1 | i
O=C(C1CCCCC1)N1CCC(c2nc3c(nnn3Cc3ccccc3Cl)c(=O)[nH]2)CC1 | -1 | -1 | 0 | x | x | 0 | x | x
COc1ccc(S(=O)(=O)N(CC(C)C)C2CCS(=O)(=O)C2)cc1OC (stereo unspecified) | 2 | 1 | -7 | -12 | x | -14 | x | i
CCCCCC(=O)N1C[C@@H](n2cc(C3CC3)nn2)[C@H](O)C[C@@H]1c1ccc(OC)cc1 | 3 | 4 | -15 | x | x | 14 | x | x
S=C(Nc1ccccc1Oc1ccccc1)NC1CCCC1 | -2 | 3 | 33 | -6 | -15 | -27 | -5 | i
CNCC(O)CN1CCN(c2ccccc2OC)CC1 (stereo unspecified) | 10 | 9 | 1 | 1 | 5 | x | 26 | i
O=[N+]([O-])c1ccc(N2CCOCC2)cc1NCCCO | 9 | 2 | -23 | 2 | 7 | -28 | -8 | i
Cn1ncc2nc[nH]c(=O)c21 | 3 | 2 | -21 | -17 | 1.2* | x | u | i | PABP polyA inh retest=64*
O=[N+]([O-])c1cc(Cl)ccc1NCCc1ccccn1 | 2 | -1 | -20 | 4 | 5 | x | -1 | i
O=c1c(-c2ccccc2)c(O)nc2ccccn12 | 1 | 5 | x | -7 | -7 | x | 6 | i
C=C(C)c1cccc(C(C)(C)NC(=O)N(C)C2CCN(C)CC2)c1 | 1 | 2 | 0 | x | 18 | 2 | -4 | i
O=C(COC(=O)CNC(=O)c1ccc(Cl)cc1)Nc1ccc(Cl)cn1 | 2 | 4 | x | 10 | x | -8 | x | x
O=C1CC(c2cccs2)CC(O)=C1C=NCCN1CCNCC1 (stereo unspecified) | -1 | 2 | x | 2 | -5 | 13 | 4 | i
Cn1nc(C(F)(F)F)c(C(=O)Nc2ccc(F)cc2F)c1Sc1cccc(C(F)(F)F)c1 | -6 | -12 | -47 | 18 | -5 | -22 | -9 | i
O=C(Nc1ccc(OC(F)(F)F)cc1)C1=NCCN1 | 8 | 4 | 14 | -5 | 5 | -23 | 8 | i
COc1cccc(CNc2nc3ccccc3n2CCN2CCCCC2)c1 | 3 | -2 | -27 | -10 | 61 | -1 | -2 | i | eIF4H FP inh retest=-4;PABP polyA inh retest=-12
CCNC(=O)N1c2ccc(OCC)cc2C(C)=CC1(C)C | -41 | -1 | 4 | -5 | 8 | -26 | 0 | i
CC1=C(C)/C(=N/OC(=O)c2cccc([N+](=O)[O-])c2)C=CC1=O | 0 | 0 | x | 19 | -2 | x | 0 | i
CC(C)CCC(CC(C)O)c1n[nH]c(=S)n1-c1ccccc1 (stereo unspecified) | -1 | 1 | x | -14 | -9 | x | -8 | i
CCS(=O)(=O)N1Cc2ccccc2CC1C(=O)NCc1cccc(OC)c1 (stereo unspecified) | -1 | 5 | 0 | x | 0 | -4 | 9 | i
CCCNC(=O)c1c(C)cc(=O)oc1C | 5 | 2 | 7 | -2 | -4 | -16 | -1 | i
Cc1ccc2c(c1)cc1c(=O)n(CC(=O)N(C)c3ccccc3)nc(C)n12 | -1 | 1 | 8 | -2 | 3 | 11 | -11 | i
Cc1ccc(/C=N/Nc2ccc3c(C(F)(F)F)cc(C(F)(F)F)nc3n2)cc1 | 0 | 4 | x | -16 | -4 | -4 | 1 | i
CC(=O)c1ccc(NS(=O)(=O)c2ccc3c(c2)N(C)CCO3)cc1 | -2 | -15 | -2 | 15 | -3 | -17 | -8 | i
COc1cc(C2c3c(-c4ccccc4)n[nH]c3C(=O)N2c2ccccc2)ccc1O (stereo unspecified) | -2 | -3 | 2 | 11 | -7 | -13 | -4 | i
CCC1CCCCN1C(=O)CSc1nnc(CNC(=O)COc2ccc(Cl)cc2)o1 (stereo unspecified) | -3 | -7 | x | 2 | 1 | -2 | -8 | i
O=C(COC(=O)c1nc(Cl)ccc1Cl)NCCc1ccccc1 | 12 | 5 | 5 | 4 | x | x | x | i
COC(=O)c1c(NC(=O)C(=O)N2CCCCC2)sc2c1CC(C)(C)OC2 | -1 | -2 | 6 | 2 | 9 | -14 | 2 | i
CCCc1c(C(=O)Nc2cc(C)on2)cnn1-c1ccccc1 | 1 | -2 | -6 | -3 | -12 | 0 | -11 | i

Screens: PubChem BioAssay, several laboratories
